Compound activity: PubChem BioAssay, several laboratories
MT1-MMP act inh: MT1-MMP (human) activation inhibition; P50281; HT1080 RFP-PRO-GFP cells, GFP/RFP ratio fluorescence, overnight; percent of plate control window, DMSO zero; GFP/RFP ratio change, % at 20 µM; 360,000 tested, 0.061% active;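 active = GFP/RFP ratio change of at least 30% with cell ATP level not reduced by more than half and red fluorescence within 50% of control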; note: strong numbers were not always called active
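Assay system: HT1080 cells carrying an RFP-PRO-GFP reporter | Dosing: Single dose of 20 µM compound, 1% DMSO final | Incubation: Cells overnight before dosing, compound overnight, 37 °C, 5% CO2 | Evaluation: GFP/RFP fluorescence ratio | Control set: DMSO and RFP-L50D-GFP cell wells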
HIV Env fusion: HIV envelope-mediated fusion inhibition; HeLa-JRFL Env/CEM21 cell fusion, luciferase; inhibition, % at 12.3 µM; 360,000 tested, 1.1% active; AID 651610;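 active = mean replicate inhibition score of at least 50 and every replicate individually at or above 50; inconclusive = only one of the two criteria met; inactive = mean below 50 and not all replicates reaching 50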;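 note: 0% = plate neutral controls and 100% = maraviroc near 300 nM; one replicate is shown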
PABP polyA inh: PABP-poly(A) binding inhibition. P11940. PABP-poly(A) RNA binding, fluorescence polarization. inhibition, % at 35 µM. 290,000 tested, 1% active;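 active = 50% or more with normal probe brightness, or confirmed in later tests; inconclusive = above 50% with abnormal brightness, or retests that disagree; inactive = below 50% or failed in later tests; about a fifth of its hits are not listed in these tables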;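 note: calls also rest on retests at 20 µM and on dose response follow-up; controls were probe without protein and protein plus probe with vehicle; some compounds called inactive have numbers as strong as hits; many hits fall short of the cut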
UUG fidelity: yeast start codon fidelity modulation | activity score, % at 18.7 µM | S. cerevisiae UUG-firefly luciferase reporter, luminescence/redox ratio | 350,000 tested, 0.13% active;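 active = replicate mean at a twofold rise or more, about +100% in these data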;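 note: firefly luciferase made from a UUG start codon reports start codon fidelity; reporter light over untreated wells divided by growth signal over untreated wells; some hits fall short of that in this replicate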
Rce1 inhib: inhibitors of yeast Ras-converting enzyme; Q03530; 290,000 tested, 0.27% active; yeast membranes, quenched prenylated peptide cleavage fluorescence; calls only;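 active = fall in fluorescence gain of 50% or more versus controls, with final raw signal at or below 3038400; inconclusive = same 50% fall but final raw signal above 3038400; inactive = fall in fluorescence gain under 50%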;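 note: plate controls were neutral control wells for no effect and wells lacking membranes for full effect; tested at 10 µM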
Target sequence (Q03530 whole entry, looked up): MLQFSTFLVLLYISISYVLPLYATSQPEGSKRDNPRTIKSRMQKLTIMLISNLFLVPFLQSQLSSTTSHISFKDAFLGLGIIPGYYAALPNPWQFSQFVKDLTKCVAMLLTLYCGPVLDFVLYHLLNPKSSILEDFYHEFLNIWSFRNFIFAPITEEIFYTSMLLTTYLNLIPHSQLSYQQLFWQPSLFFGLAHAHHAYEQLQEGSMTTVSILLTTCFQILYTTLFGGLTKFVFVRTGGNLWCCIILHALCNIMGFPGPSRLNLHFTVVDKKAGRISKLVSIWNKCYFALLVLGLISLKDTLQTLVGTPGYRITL
CSC inhib: blocks cancer stem cells | inhibition, % at 7.5 µM | cancer stem cell-like cells viability, luminescence | 300,000 tested, 1.1% active;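 active = mean at 75% or more and at least half the replicates too; inconclusive = mean and replicates disagree; tested in HMLE shEcad cells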;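 note: 0% = median of negative and 100% = median of positive control wells; the first replicate is given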
eIF4H inh: inhibitors of RNA binding by human eIF4H; inhibition, % at 35 µM; eIF4H fluorescence polarization binding assay; Q15056; 290,000 tested, 0.94% active;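 active = 50% or more with normal probe brightness, or confirmed in later tests; inconclusive = above 50% with abnormal brightness, or retests that disagree; inactive = below 50% or failed in later tests; about a fifth of its hits are not listed in these tables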;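 note: calls also rest on retests at 20 µM and on dose response follow-up; 0% = protein and probe with vehicle and 100% = probe without protein; strong numbers were not always called active; many hits fall short of the cut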
eIF4H inh retest: further read-out of eIF4H inh, marked with its call; inhibition, %; compound at 20 µM; confirmation average;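 mean of two retest wells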
PABP polyA inh retest: also measured in PABP polyA inh; calls as there; inhibition, %; compound at 20 µM; confirmation repeats;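 mean of two retest wells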
MT1-MMP act inh RFP: also measured in MT1-MMP act inh; calls as there; RFP signal change, %; measured here: RFP expression control read;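 0 = vehicle wells; hits needed this value within 50% of zero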
Starred values were filed as active, the others as inactive; i = inactive; ? = inconclusive; nt = no result given; & = joins results of further samples; [ ] = another dose, or the depositor's remark. The list is partial, so the mix of outcomes need not match the whole.

SMILES | MT1-MMP act inh | MT1-MMP act inh RFP | HIV Env fusion | PABP polyA inh | UUG fidelity | Rce1 inhib | CSC inhib | eIF4H inh | others
COc1ccccc1N1CCN(C(=O)c2ccc(-c3ccccc3)cc2)CC1 | 0.1 | 1.0 | -10.5 | 3.7 | 13.1 | i | -14.3 | 3.9
Cc1ccc(NC(=O)CCCSc2nc3ccccc3[nH]2)cc1 | 7.4 | 1.1 | 1.8 | -11.3 | nt | i | -3.1 | -0.1
CCCS(=O)(=O)NC(=O)C1(C)CCCN(C(=O)COc2ccccc2)C1 (configuration not stated) | 16.8 | 2.0 | -4.6 | nt | -14.8 | nt | nt | nt
COc1cccc2cc(C(=O)NCc3ccccc3Br)c(=O)oc12 | 0.7 | 3.9 | 1.1 | 2.2 | -0.9 | i | -7.8 | 5.1
CCOc1cc(CNc2ccc3c(c2)OCCO3)cc(Br)c1OCC(N)=O | 4.7 | -3.9 | nt | 7.6 | -43.4 | i | 23.1 | -7.0
Cc1ccc(OCCC(=O)OCC(=O)N2CCN(S(=O)(=O)c3ccc(Cl)cc3)CC2)cc1 | -1.8 | 3.4 | -6.8 | nt | nt | i | 15.4 | nt
COc1cc(C(O)c2nc(-c3cc(F)cc(F)c3)cs2)ccc1F (configuration not stated) | -1.5 | -11.0 | 27.3 | nt | -5.5 | nt | nt | nt
Cc1ccc(CN2C(=O)C(F)(F)Oc3ccc(C)cc32)cc1 | -0.2 | -0.4 | 9.5 | nt | -23.9 | nt | nt | nt
Cc1ccc(OC(=O)c2ccc(Br)o2)cc1 | 3.6 | 2.5 | nt | -6.5 | -10.2 | i | 5.1 | -2.5
Cc1ccc2c(c1)cc(CN(Cc1cccnc1)C(=O)NCc1ccccc1)c1nnnn12 | 3.4 | -3.5 | -11.1 | -1.5 | -7.2 | i | -5.2 | 4.1
O=C1CCC/C(=N\NC(=O)COc2ccc(Cl)cc2)C1 | -0.6 | 3.0 | 14.7 | 2.8 | nt | i | -6.1 | 9.7
CC(C)(C)c1cccc(Cn2nnc3ccccc32)c1O | 8.0 | -25.3 | 42.8 | nt | 0.6 | i | -3.6 | nt
COc1cc(CCC(=O)OCC(=O)NCc2ccccc2)cc(OC)c1OC | 0.7 | 0.0 | -12.2 | 4.0 | nt | i | -11.2 | 1.5
Cc1cc2c(cc(C(=O)O)n2C)s1 | -4.1 | 2.0 | nt | 1.8 | -8.6 | i | -14.2 | -9.8
Cc1ccc(N(CC(=O)NCc2ccc3c(c2)OCO3)C(=O)CCC(=O)Nc2ccccn2)cc1 | 0.5 | 0.6 | 0.7 | 6.7 | -15.0 | i | 9.4 | 3.9
COc1ccc(NC(=O)NC(=O)c2cc(OCC(F)(F)F)ccc2OCC(F)(F)F)cc1 | -6.4 | -4.8 | -4.8 | -4.7 | 7.0 | i | 9.4 | 0.6
Cc1c(C(=O)N(Cc2cccc(Br)c2)C2CCS(=O)(=O)C2)oc2ccc(F)cc12 (configuration not stated) | -6.2 | -7.2 | 6.5 | 1.0 | -7.4 | i | 4.2 | -1.1
Cn1c(C(=O)OCC(=O)NCc2cccs2)cc2sccc21 | 2.8 | -1.9 | nt | 4.4 | nt | i | 23.8 | -15.3
C#CCn1cc(Cl)cc(C(=O)Nc2ccccc2)c1=O | 3.5 | 4.0 | -14.8 | -4.2 | nt | i | -4.9 | 2.8
CN(CC(=O)Nc1cc(C(F)(F)F)ccc1-n1cncn1)Cc1nc2ccccc2c(=O)[nH]1 | -3.4 | 2.6 | 7.4 | nt | 3.6 | nt | nt | nt
CCOC(=O)C1(Cc2cccc(F)c2)CCN(C(=O)COC)CC1 | -0.8 | -1.4 | -16.7 | -7.7 | -4.3 | i | nt | -6.0
Cc1ccc2nc(NC(=O)C3CCN(S(=O)(=O)c4cc([N+](=O)[O-])ccc4Cl)CC3)sc2c1 | -5.3 | -31.2 | nt | 10.0 | nt | i | 12.9 | 45.9
CN(C)C(=S)NC(C)(C)C | 2.9 | 4.1 | 10.4 | -8.8 | nt | i | 0.6 | 3.5
CCC(=O)NC(=Nc1nc2ccccc2s1)NC(=O)CC | 4.7 | 0.2 | nt | 4.5 | -18.5 | i | -7.0 | -7.2
Cc1onc(-c2ccccc2)c1C(=O)OCC(=O)Nc1cc(S(=O)(=O)N2CCOCC2)ccc1Cl | -4.0 | -14.5 | 27.2 | -7.3 | nt | i | -3.7 | -0.4
OC(COc1ccc(OCC(O)CN2CCN(Cc3ccccc3)CC2)cc1)CN1CCN(Cc2ccccc2)CC1 (configuration not stated) | 5.8 | -4.2 | 8.0 | nt | -15.2 | i | 0.3 | nt
COc1ccc(N/C=C\C(=O)c2ccc(Br)cc2)cc1OC | -18.6 | 5.5 | nt | 3.2 | nt | i | 4.3 | 71.4* | eIF4H inh retest=88.8*;PABP polyA inh retest=49.9
CCOc1cc(NC(=S)NCCCN2CCOCC2)c(OCC)cc1NC(=O)CC(C)C | 15.6 | 60.8 | -30.2 | -4.6 | -9.5 | i | -10.2 | -3.3
CC(=O)c1cn(C)c(=O)n(C)c1=O | 1.6 | 4.4 | -9.6 | 3.4 | nt | i | 1.7 | -0.8
CN(C)NC(=S)NC1CC2CCC1C2 (configuration not stated) | 4.5 | 3.0 | -63.2 | -10.0 | nt | i | -13.3 | -19.6
CC(OC(=O)Cc1n[nH]c(=O)c2ccccc12)C(=O)Nc1ccc(F)cc1 (configuration not stated) | 0.8 | 7.0 | -9.4 | nt | -16.2 | i | -4.9 | nt
NC(=O)c1ccsc1NC(=O)CS(=O)(=O)c1ccccc1 | 4.9 | 5.8 | 0.7 | nt | nt | i | 8.0 | nt
CCOC(=O)C(CC(=O)c1ccccc1)CC(=O)c1ccccc1 | -0.5 | -0.6 | -41.1 | 0.1 | 1.1 | i | 8.6 | -10.6
Nc1nnc(SCc2ccc(F)cc2Cl)s1 | 17.8 | 2.9 | nt | -0.6 | -12.6 | i | 3.6 | -2.5
Cc1nc(C(=O)NC2CCOCC2)sc1C1(C)CC(c2ccccc2)=NO1 (configuration not stated) | 2.9 | -2.0 | ? | -8.5 | 6.2 | i | -9.7 | 2.5
O=C(C1=C[C@@H](c2ccc3c(c2)OCO3)C[C@@H](OCCCCO)O1)N1CCOCC1 | 0.3 | 3.3 | -9.3[16.7 µM] | 9.4 | 5.9&-8.3 | i | -9.6 | 2.8
CC1=Nc2ccccc2N=C(NC(=O)CN2CCN(c3ccc(F)cc3)CC2)C1c1ccccc1 (configuration not stated) | 1.3 | 4.6 | 25.0 | -1.9 | -17.5 | i | 3.7 | -6.0
CCO[C@@H]1OC(C(=O)Nc2ccccc2)=C[C@H](C2CC2)[C@H]1CCCO | 1.1 | 2.1 | 3.7[16.7 µM] | -4.0 | -21.1&-6.0 | i | -7.0 | -2.3
COc1ccc(CC(=O)O/N=C(\N)c2ccncc2)cc1OC | 3.5 | -4.2 | -6.1 | nt | -4.2 | nt | nt | nt
O=C(O)C(Cc1ccccc1)N1C(=O)/C(=C/c2cccs2)SC1=S (configuration not stated) | 3.8 | 4.1 | 6.9 | 5.5 | nt | nt | nt | -0.5
CCc1ccc(C(=O)Cn2ccsc2=N)cc1 | -4.8 | 2.3 | -103.1 | 12.6 | -36.6 | i | -5.4 | -1.1
CCCC(c1nnnn1CCOC)N1CCN(C(=O)c2ccco2)CC1 (configuration not stated) | 3.2 | 8.8 | nt | 30.0 | -4.7 | i | -1.9 | 7.8
CCC(C)NC(=O)c1cc2c(=O)n(CC)c3ccccc3c2s1 (configuration not stated) | 1.6 | -5.4 | -13.0 | -1.1 | -8.3 | i | 11.7 | -1.3
CC(=O)C1=C(C)Nc2ncnn2C1c1cccc(O)c1 (configuration not stated) | -1.0 | 1.8 | -3.7 | -6.7 | -4.4 | i | -2.0 | -3.2
CC(C)=CCCC(C)CN1CCC(N2CCC(C(=O)N3CCOCC3)CC2)CC1 (configuration not stated) | 2.0 | 4.6 | 8.9 | 2.3 | nt | i | 23.8 | 5.9
O=C(Nc1cccnc1)c1ccc(C(=O)Nc2cccnc2)cc1 | -9.9 | -14.8 | 9.1 | 3.8 | nt | i | nt | -7.1
CCCCC1(Cc2ccc([N+](=O)[O-])cc2)C(=O)N(c2ccccc2)N(c2ccccc2)C1=O | -24.9 | -31.8 | 132.8* | 9.5 | -10.0 | i | 6.2 | -3.6
COc1cc(/C=N/Nc2nc(C)cc(C)n2)ccc1O | -2.1 | 5.8 | -12.4 | nt | -29.1 | nt | nt | nt
C=CCNC(=O)COC(=O)c1ccc(Sc2nncn2C)c([N+](=O)[O-])c1 | -2.9 | 0.9 | 6.0 | -2.7 | nt | i | 12.8 | -1.5
CN(C)C(=O)CSc1n[nH]c(-c2ccco2)n1 | 1.5 | 3.4 | 2.1 | -8.3 | -28.3 | i | nt | -7.1
CCN(C(=O)COC(=O)c1c(C)noc1C)C1CCS(=O)(=O)C1 (configuration not stated) | 1.4 | 0.7 | 20.3 | 15.4 | nt | i | -3.5 | 6.9
COc1ccc(CC(N)c2csc(NC(=O)Nc3ccccc3C(C)(C)C)n2)cc1 (configuration not stated) | -6.9 | -1.5 | 52.5 | nt | -12.7 | nt | nt | nt
O=C1O/C(=C\C(=O)N2CCOCC2)c2ccccc21 | -5.2 | 0.3 | nt | 3.1 | -15.7 | i | 15.1 | -0.6
C#CCCC/C(=C\C(=O)N(C)[C@H](C(=O)N(C)[C@H](C(=O)N(C)[C@H](C(=O)N(C)[C@H](C(N)=O)C(C)C)C(C)C)C(C)C)C(C)C)OC | -2.1 | -1.4 | -18.2 | nt | 2.9 | nt | nt | nt
Cc1c(NC(=O)C2CC=CCC2C(=O)O)c(=O)n(-c2ccccc2)n1C (configuration not stated) | 0.5 | 4.3 | nt | 14.4 | 0.7 | i | -2.8 | 36.2
COc1ccccc1N1CCN(C(=O)/C=C/c2cccs2)CC1 | -0.6 | 1.7 | 23.1 | -3.7 | nt | i | -6.8 | -10.0
Cc1cc(NC(=O)Cc2ccccc2[N+](=O)[O-])no1 | -1.2 | -0.7 | 3.7 | 8.1 | -3.7 | i | -17.3 | 3.3
CCOC(=O)Cn1c(C)[n+](C)c2cc(Cl)c(Cl)cc21 | -0.2 | -0.8 | 6.0 | 3.0 | nt | i | -6.0 | -3.0
COc1cc(Cn2nnc3ccccc32)cc(Br)c1O | -3.6 | -4.0 | -12.2 | 1.7 | 2.4 | i | -11.4 | -12.9
Cc1ccc(-c2nnn(CC(=O)N(c3ccccc3)C(C(=O)NCC3CCCO3)c3ccc(F)cc3)n2)o1 (configuration not stated) | -2.8 | -4.0 | -7.3 | -6.9 | -5.5 | i | -3.0 | 2.3
Cc1ccc(-n2c(SCc3cn4ccsc4n3)nc3ccccc3c2=O)cc1 | -12.1 | -22.2 | nt | -14.7 | -7.8 | i | nt | 4.6
CC(C)Oc1cc(O)c2c(=O)c(-c3ccc(O)cc3)coc2c1 | -1.1 | -3.3 | -248.5 | -13.2 | -18.8 | i | 51.9 | 8.2
